From PubChem
GCN5L2 inh = blocks human GCN5L2 histone acetyltransferase | Q92830 | Potency, µM (titrated, usually from 58.9 µM), for inactives: top-dose activity change, negative = inhibition, most hits filed as inhibitors | GCN5L2 HAT assay, ThioGlo1 CoA-SH fluorescence | 390,000 compounds, 0.21% hits; active means well fitted inhibition curve with a large enough effect; inconclusive means small, poorly fitted or top-dose-only effect, or another doubt; inactive means no such curve, though single readings can be large or run the other way
Target sequence (Q92830 whole entry, looked up): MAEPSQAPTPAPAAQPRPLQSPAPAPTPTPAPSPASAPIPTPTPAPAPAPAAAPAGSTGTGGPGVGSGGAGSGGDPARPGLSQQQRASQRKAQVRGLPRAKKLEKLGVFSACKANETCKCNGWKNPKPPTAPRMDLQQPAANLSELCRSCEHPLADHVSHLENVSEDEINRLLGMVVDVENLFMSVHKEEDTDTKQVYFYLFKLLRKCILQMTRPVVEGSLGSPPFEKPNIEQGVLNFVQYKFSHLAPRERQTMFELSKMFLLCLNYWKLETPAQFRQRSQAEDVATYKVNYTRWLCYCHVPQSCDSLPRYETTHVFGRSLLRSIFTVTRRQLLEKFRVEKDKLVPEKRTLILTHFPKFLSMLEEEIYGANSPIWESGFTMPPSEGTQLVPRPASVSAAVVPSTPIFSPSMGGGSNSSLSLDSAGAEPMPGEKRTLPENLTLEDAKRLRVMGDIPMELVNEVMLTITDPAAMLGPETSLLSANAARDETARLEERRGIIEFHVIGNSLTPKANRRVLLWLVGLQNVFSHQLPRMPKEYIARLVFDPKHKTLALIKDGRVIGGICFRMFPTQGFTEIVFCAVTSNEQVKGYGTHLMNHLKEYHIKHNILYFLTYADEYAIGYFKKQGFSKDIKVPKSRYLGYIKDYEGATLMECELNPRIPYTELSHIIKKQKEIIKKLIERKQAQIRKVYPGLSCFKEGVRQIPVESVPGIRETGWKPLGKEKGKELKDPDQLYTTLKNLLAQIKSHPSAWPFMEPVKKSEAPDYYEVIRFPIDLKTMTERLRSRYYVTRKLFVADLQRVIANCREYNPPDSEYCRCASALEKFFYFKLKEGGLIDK
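GCN5L2 (20nM final) in 50mM HEPES, 0.1mM EDTA pH 7.5, 0.01% Tween-20 was preincubated 15 min at room temperature with compound, then given ThioGlo1 (50uM), H3(1-25) peptide (75uM) and acetyl-CoA (70uM); CoA-thiol fluorescence (Ex340/Em540) was read at 0 and 20 min.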
Active calls of the source: *; ? = inconclusive; & = joins results of further samples; [ ] = remark or other dose. On the % scale 0 is the no-effect control and ±100 the full control effect; potency means the concentration at half of the fitted maximal effect. A portion of the library, and most or all hits are left out here.

GCN5L2 inh,molecule
-7.6%,O=C(CCS(=O)(=O)c1cccs1)Nc1ccc(C(=O)NCc2ccccc2)cc1
2.3%,O=C(CCn1c(=O)oc2ccccc21)NCCN1CCc2ccccc2C1
-4.5%,CN(Cc1nccs1)C(=O)C1CCC(=O)N(CCc2ccc(Cl)cc2)C1 (stereo unspecified)
-8.0%,COc1cc(OC)cc(-c2nnc(SCC(=O)N(Cc3ccccc3)C(C)(C)C)o2)c1
-1.7%,Cc1cccc(NC(=S)N(CCN(C)C)Cc2cc3cc(C)ccc3[nH]c2=O)c1
-21.8%,CN(CCc1ccccn1)C(=O)CCC1CCCN(C(=O)c2ccc3c(c2)OCCO3)C1 (stereo unspecified)
2.7%,CCC(=O)C1CCCN(C(=O)CCc2nnc(-c3ccc4c(c3)OCO4)o2)C1 (stereo unspecified)
-8.0%,Cc1nc(-c2ccc(S(=O)(=O)N3CCCN(CCc4ccccc4)CC3)s2)cs1
-1.7%,O=C(CSc1nncc2ccccc12)Nc1cccc(O)c1
-5.9%,NC(=O)C1Cc2ccccc2CN1C(=O)c1nn(Cc2ccccc2)c(=O)c2ccccc12 (stereo unspecified)
0.3%,Cc1cc(C)n(-c2nnc(NC34CC5CC(CC(C5)C3)C4)nn2)n1
-8.2%,COc1ccc(N2CC(NC(=O)Nc3ccccc3)CC2=O)cc1 (stereo unspecified)
-7.6%,Fc1cccc(/C=N/Nc2ccccn2)c1
-5.8%,O=C(N1CCOCC1)N1CCN(C(=O)N(c2ccccc2)c2ccccc2)CC1
-0.3%,COc1ccc(N(CC(=O)NC2CCCCC2)S(=O)(=O)c2c(C)[nH]c(=O)[nH]c2=O)cc1
-2.7%,Cn1c([N+](=O)[O-])cnc1N1CCN(c2nncs2)C1=O
-8.2%,COc1cccc(NC(=O)CSc2nc(-c3ccccc3Cl)nc3c2Cc2c(CO)cnc(C)c2O3)c1
-9.2%,CCN1CCN(C(=O)c2cc3c(s2)-c2ccccc2S(=O)(=O)C3)CC1
-9.0%,S=C(NCCc1ccc(Cl)cc1)NCc1ccccc1
-6.2%,COC(=O)C1=C(C)NC2=C(C(=O)CC(c3cccs3)C2)C1c1ccsc1 (stereo unspecified)

A few values from the entries so far:
Under GCN5L2 inh, `COc1cc(OC)cc(-c2nnc(SCC(=O)N(Cc3ccccc3)C(C)(C)C)o2)c1` is listed with -8.0%
Under GCN5L2 inh, `CN(CCc1ccccn1)C(=O)CCC1CCCN(C(=O)c2ccc3c(c2)OCCO3)C1` (stereo unspecified) is listed with -21.8%

(list continues)
GCN5L2 inh,molecule
-3.7%,C=CCOc1ccc(-c2nc3c(c(=O)[nH]c(=O)n3CCCC)n2C)cc1Br
-3.9%,Cc1ccc(S(=O)(=O)c2nc(S(C)(=O)=O)sc2NCC2CCCO2)cc1 (stereo unspecified)
-13.6%,COC(=O)c1cc2c(ccn2C)n1C
-3.3%,CCOc1ncccc1C(=O)OCC(=O)Nc1ccc(-c2nc3ccc(C)cc3s2)cc1
-2.1%,O=C(NCc1cccc(Cl)c1)c1ccco1
-19.3%,CC(C)CC(=O)n1nc(-c2cccnc2)nc1NCc1ccc(F)cc1
-7.5%,COc1ccccc1-c1nc(C#N)c(N2CCc3ccccc3C2)o1
-7.4%,O=C(O)Cc1ccc(NC(=O)CCN2C(=O)c3ccc([N+](=O)[O-])cc3C2=O)cc1
?,Cc1ccccc1NS(=O)(=O)c1ccc(NC(=O)CSCc2ccc(Br)cc2)cc1
-15.7%,CCOC(=O)COn1c2c(c3c4no[n+]([O-])c4ccc31)CCCC2
-0.7%,O=C(COC(=O)c1c(F)cccc1F)NCc1cccs1
-2.8%,COc1ccc(-c2csc3ncnc(NCCN4CCOCC4)c23)cc1
-2.7%,Cc1ccc(C(=O)OC(C)C(=O)NC2CCCCC2C)s1 (stereo unspecified)
-8.9%,CCOC(=O)c1c(C)[nH]c(C(=O)COC(=O)CCC(=O)c2ccc3c(c2)OCCO3)c1C
-3.4%,CC(=O)Nc1ccc(NC(=O)CN(c2ccccc2Cl)S(C)(=O)=O)cc1
-6.0%,O=C(O)CCC(=O)NN1C(=O)c2ccccc2NC1c1ccco1 (stereo unspecified)
17.3%,Cc1cccc(C)c1NC(=O)C(c1ccc([N+](=O)[O-])cc1)N1CCCCC1 (stereo unspecified)
-5.8%,CC1=C(C(=O)Nc2cccnc2)C(c2ccc(C(C)C)cc2)n2ncnc2N1 (stereo unspecified)
-0.5%[0.501 µM],CCOC(=O)N1CCN(C(=O)C(C)n2nc(C)n3c(cc4sccc43)c2=O)CC1 (stereo unspecified)
-8.6%,CC1CCCCN1CCNC(=O)C1CCN(S(=O)(=O)c2cccc3nsnc23)CC1 (stereo unspecified)
-6.2%,O=C(O)CC1Oc2ccc(Cl)cc2NC1=O (stereo unspecified)
-0.6%,CCc1ccccc1NC(=O)COc1cccc2ccc(C)nc12
0.8%,Cc1ccnc(NC(=O)CNC(=O)c2ccc3c(c2)OCO3)c1
-4.8%,O=C(CSCCO)Nc1ccc([N+](=O)[O-])cc1
-14.3%,O=C(C1CCCCCC1)N1CC[C@@H](N2CCC(O)CC2)[C@H](O)C1
-3.0%,CCCOc1nc(SCCC)nc2c1cnn2-c1ccccc1
4.8%,Cc1cccc(C)c1OCc1nnc(SCC(=O)Nc2ccccc2F)o1
-0.7%,O=C(NNC(=S)Nc1ccccc1)Nc1ccccc1
-22.3%,Cc1cccc(OCC2CCCN(Cc3nc(C4CC4)no3)C2)c1 (stereo unspecified)
-9.2%,NC(=O)NC(=O)COC(=O)c1ccccc1OCc1ccc(F)cc1
1.3%&-6.3%,COC(=O)C1=C(C)N(Cc2ccccc2)C(=NCC(C)C)N[C@H]1c1cccc(F)c1
-1.5%&-5.6%&4.8%,CC(CCc1ccccc1)NCC(O)c1ccc(O)c(C(N)=O)c1 (stereo unspecified)
-6.7%,CCCCSCCCNC(=S)Nc1ccccc1C
-10.3%,CC(=O)Nc1ccc(S(=O)(=O)NC2=C(N3CCN(C)CC3)C(=O)c3ccccc3C2=O)cc1
-2.8%,Cc1ccc(-n2nc3c(=O)n(CCCC(=O)N4CCC(C)CC4)nc(C)c3c2C)cc1
-1.7%,CC12COC3(C(=O)Nc4cccnc4)CC1CCC32C (stereo unspecified)
-11.0%,NC(=O)c1sc2cc(C(F)(F)F)cnc2c1-c1cccs1
0.3%,CCN1C(=O)N(S(=O)(=O)c2ccc(C)cc2)[C@@H](c2ccccc2)C(C(=O)OC)=C1C
45.8%[activator][21.4 µM],CCN1C(=O)N[C@@H](c2ccccc2)C1=O
-13.3%,CCOC(=O)CNC(=O)C(CO)NC(=O)OCc1ccccc1 (stereo unspecified)

Looked up by structure from the entries so far (two):
GCN5L2 inh,molecule
-3.3%,CCOc1ncccc1C(=O)OCC(=O)Nc1ccc(-c2nc3ccc(C)cc3s2)cc1
-5.8%,CC1=C(C(=O)Nc2cccnc2)C(c2ccc(C(C)C)cc2)n2ncnc2N1 (stereo unspecified)

Back to the main list, starting 3 compounds before the break.
GCN5L2 inh,molecule
0.3%,CCN1C(=O)N(S(=O)(=O)c2ccc(C)cc2)[C@@H](c2ccccc2)C(C(=O)OC)=C1C
45.8%[activator][21.4 µM],CCN1C(=O)N[C@@H](c2ccccc2)C1=O
-13.3%,CCOC(=O)CNC(=O)C(CO)NC(=O)OCc1ccccc1 (stereo unspecified)
-7.0%,N#Cc1ccc(OCC(=O)NCC2COc3ccccc3O2)cc1 (stereo unspecified)
0.8%,CNS(=O)(=O)c1cn(CC(=O)Nc2cccc(C(F)(F)F)c2)cc1S(=O)(=O)NC
-18.9%,COCCN(C(=S)Nc1ccc(C)cc1)C(C)c1ccco1 (stereo unspecified)
1.4%,CC1CCCN(C(=O)COC(=O)c2cc(Br)ccc2O)C1 (stereo unspecified)
-6.1%,CCOC(=O)N1CC=C2C(C#N)=C(N)C(C#N)(C#N)[C@H](c3ccsc3)[C@H]2C1
1.1%,C=CCNC(=O)c1cc(-c2ccncc2)nc2c(C)cc(C)cc12
-2.6%,Cn1c(=O)c2c(nc(N3CCCCC3)n2CCSc2nc3ccccc3s2)n(C)c1=O
-7.2%,CCNC(=O)CSc1nnc(-c2ccccc2)n1-c1ccc(OCC)cc1
-1.2%,CN(C)c1ccc(Nc2c3c4c(cccc4n(C)c2=O)C(=O)c2ccccc2-3)cc1
0.9%,O=C(c1cccs1)N1CCN(C2CCN(Cc3ccccc3)CC2)CC1
-8.6%,Cc1ccc(S(=O)(=O)N2CCC(C(=O)OCC(=O)N(C)CC(=O)Nc3ccc(F)cc3)CC2)cc1C
0.8%,Cc1nc2sc(C(c3ccco3)N3CC(C)OC(C)C3)c(O)n2n1 (stereo unspecified)
-3.6%,CCC(=O)c1ccc(SC(=O)N(C)C)cc1O
3.2%,COc1ccc(NS(=O)(=O)c2cccc(C(=O)NNC(=O)c3cncc(Br)c3)c2)cc1
-6.9%,CCCC(C(=O)NC1CCCC1)N(C(=O)Cn1nnc(-c2ccc(C)o2)n1)c1ccccc1F (stereo unspecified)
-12.0%,Cc1ccc(-c2noc(C3CCN(S(=O)(=O)c4ccc5c(c4)OCCO5)CC3)n2)o1
-11.6%,CN(CC(=O)Nc1ccccc1Cl)C(=O)COC(=O)c1ccc(=O)n(Cc2ccccc2)n1
-1.0%,COCCCn1c(Cc2csc(Nc3cccc(Cl)c3)n2)nnc1SCC(=O)OC1CCCCC1
-5.1%,CCN1CCc2c(sc(NC(=O)c3ccc(S(=O)(=O)N4CCCC4)cc3)c2C(=O)NC)C1
-9.8%,COC(=O)[C@@]12CCCCN1[C@H](c1ccc(-c3ccc(F)cc3)c(OC)c1)[C@@H]1C(=O)N(C)C(=O)[C@@H]12

Among those listed so far, these contain a COOH group:
GCN5L2 inh,molecule
-7.4%,O=C(O)Cc1ccc(NC(=O)CCN2C(=O)c3ccc([N+](=O)[O-])cc3C2=O)cc1
-6.0%,O=C(O)CCC(=O)NN1C(=O)c2ccccc2NC1c1ccco1 (stereo unspecified)
-6.2%,O=C(O)CC1Oc2ccc(Cl)cc2NC1=O (stereo unspecified)

Other entries follow.
GCN5L2 inh,molecule
4.5%,CC1=CC(C)(C)N(C(=O)CN2C(=O)CCC2=O)c2ccc(C)cc21
-4.7%,Cc1ccc(NC(=O)N2CCC(NC(=O)C(C)(C)C)CC2)cc1
-4.0%,O=C(C1=C[C@H](C2CC2)C[C@H](OCc2ccc(CO)cc2)O1)N1CCOCC1
-1.5%,Brc1cc(Br)c2nc(-c3cccs3)ccc2c1
-3.5%,O=C(CCC1CCCC1)NNC(=O)COc1ccc(Br)cc1
-1.5%,O=c1c2c(nc3nc(COc4ccccc4)[nH]n13)CCC2
-3.5%,COC(=O)c1ccc(C)c(NC(=O)CCCN2C(=O)CN(C)C2=O)c1
-3.5%,O=C(CN1CCN(S(=O)(=O)c2ccc(F)c(Cl)c2)CC1)N1CCNC1=O
-2.3%,O=C(NC1CCOCC1)C1CCC(=O)N(CCc2cccc(F)c2)C1 (stereo unspecified)
-9.7%,COc1ccccc1Oc1ccc(N/C=C/C(=O)c2ccc(C)o2)cc1
-5.5%,COc1ccccc1C(=O)Nc1ccc2c(c1)nc1n2CCN(Cc2ccccc2)C1
-2.7%,Cc1ccc(S(=O)(=O)/N=S(/C)c2ccccc2)cc1 (stereo unspecified)
-3.4%,O=C(Cc1ccc(Cl)cc1)Nc1ccccc1C(=O)Nc1ccc(C(=O)O)cc1
1.3%,O=C(CC1C(=O)NCCN1Cc1ccccc1)NCCN1CCCCC1=O (stereo unspecified)
3.0%,CN(CCCNC(=O)c1ccc(N2CCCC2=O)cc1)c1ccccc1
2.9%,CCn1c(=O)n(CC)c2cc(S(=O)(=O)N3CCOCC3)ccc21
-10.2%,CCN(C(=O)Cn1ncc2c1-c1cc(C)ccc1OC2)c1cc(Cl)ccc1OC
-5.6%,O=C(/C=C/c1ccc(S(=O)(=O)NCc2ccco2)cc1)N1CCN(c2ccccc2)CC1
-16.6%,CC(=O)Nc1ccc(S(=O)(=O)N2CCC(C(=O)NCCC(=O)Nc3nccs3)CC2)cc1
2.1%,COC(=O)c1nc(N)sc1-c1ccccc1
?,Cc1cc(/C=C(\C#N)C(=O)NC2CCCCCC2)c(C)n1C
-4.7%,COCCNC(=O)CN(C(=O)Cn1nnc2ccccc21)c1ccccc1
-4.8%,Cn1ncc2c(Nc3ccc(-c4ccccc4)cc3)ncnc21
-3.1%,O=C(CN1C(=O)c2ccccc2C1=O)N1CCN(S(=O)(=O)c2ccccc2)CC1
2.9%,CCc1ccccc1OCCCCCNCCO
1.1%,O=S(=O)(NCCc1cn2ccccc2n1)c1ccc2c(c1)CCCC2
-8.2%,CCCCCn1c(CN2CC(C)OC(C)C2)nc2c1c(=O)n(C)c(=O)n2C (stereo unspecified)
?,CCCCNc1c(-c2ccc(SC3CCCCC3)cc2)nc2cnccn12
-3.8%,CC(=O)N1CCc2c(sc3c2c(=O)n(-c2cccc(Cl)c2C)c(=O)n3Cc2ccccc2C)C1
-4.3%,Nc1c(C(=O)OCC2CCCO2)c2nc3ccccc3nc2n1C1CCCCC1 (stereo unspecified)
-29.0%,CCC(=O)N1CCN(c2ccc(NC(=S)NC(=O)COc3ccccc3)cc2)CC1
3.0%,Cn1ccnc1SCC(=O)Nc1ccc2nc(SCC(=O)NC3CC3)sc2c1
-4.4%,CCN(CC)c1ccc(NC(=O)c2ccc(S(=O)(=O)N3CCOCC3)cc2)cc1
-7.1%,COc1ccc(C2/C(=C(\O)c3cc(C)ccc3C)C(=O)C(=O)N2CCN(C)C)cc1OC (stereo unspecified)
3.2%,O=C(NC1CCC(Oc2ccc(C(=O)O)cc2)CC1)NC12CC3CC(CC(C3)C1)C2 (stereo unspecified)
